TRPML1 inh = qHTS for Inhibitors of the Human Mucolipin Transient Receptor Potential 1 (TRPML1); Mucolipin-1 (Homo sapiens), Q9GZU1; TRPML1-inducible cells, Ca2+ dye fluorescence, FDSS; hits give low values; inhibition of EC80 agonist-evoked calcium signal; activity change, negative = inhibition, % (concentration not given with the values); 0.02% of 390,000 active; in the data active means activity change below about -50%; inconclusive means about -30% to -50%; inactive means above about -30%;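 further: stimulus is agonist 54-4 at its EC80 concentration; on the % scale 0 is the no-effect control and ±100 the full control effect; compound concentration not given in the record; the text of the record puts the active cut at -80%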
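TRPML1-DL cells, Tet-induced overnight (~16 h, 37 °C) at 1,500 cells/well, were loaded with Ca8 no-wash dye plus quencher for 45-90 min at room temperature. Compounds were pinned during FDSS kinetic reading; agonist 54-4 at EC80 (4 uM final) then added.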
D2 potentiator = Beta-Arrestin HTS for Positive Allosteric Modulators of the Human D2 Dopamine Receptor: Potentiators | 0.23% of 360,000 active | D(2) dopamine receptor (Homo sapiens), P14416 | DiscoveRx D2 beta-arrestin cells, luminescence, 90 min; 100% = 57 uM dopamine signal | potentiation, % (test concentration not listed); active = potentiation of 50% or more; inconclusive = 30% to 50%; inactive = 30% or less;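 further: compound concentration not given in the record; tested on top of an EC20 dose of dopamine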
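D2 cells co-treated with compound plus 50 nM dopamine (EC20) for 90 min at 37 deg C to detect potentiation. Beta-arrestin recruitment was read as enzyme-fragment luminescence after 1 h at ambient temperature. Full response was set by 57 uM dopamine.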
Six1-Eya2 blk = qHTS Assay for Inhibitors of the Six1/Eya2 Interaction. AlphaScreen GST-Six1/His-Eya2 binding, biochemical; hits give low values; control for the full effect not named in the record. 0.56% of 360,000 active. Homeobox protein SIX1 (Homo sapiens) + Protein phosphatase EYA2 (Homo sapiens), …. activity change, % (no concentration beside the values). AID 651725, 2012; in the data active = activity change below about -65%; inconclusive = about -30% to -65%; inactive = above about -30%; further: on the % scale 0 is the no-effect control and ±100 the full control effect; compound concentration not given in the record
Target sequence (O00167 whole entry, looked up): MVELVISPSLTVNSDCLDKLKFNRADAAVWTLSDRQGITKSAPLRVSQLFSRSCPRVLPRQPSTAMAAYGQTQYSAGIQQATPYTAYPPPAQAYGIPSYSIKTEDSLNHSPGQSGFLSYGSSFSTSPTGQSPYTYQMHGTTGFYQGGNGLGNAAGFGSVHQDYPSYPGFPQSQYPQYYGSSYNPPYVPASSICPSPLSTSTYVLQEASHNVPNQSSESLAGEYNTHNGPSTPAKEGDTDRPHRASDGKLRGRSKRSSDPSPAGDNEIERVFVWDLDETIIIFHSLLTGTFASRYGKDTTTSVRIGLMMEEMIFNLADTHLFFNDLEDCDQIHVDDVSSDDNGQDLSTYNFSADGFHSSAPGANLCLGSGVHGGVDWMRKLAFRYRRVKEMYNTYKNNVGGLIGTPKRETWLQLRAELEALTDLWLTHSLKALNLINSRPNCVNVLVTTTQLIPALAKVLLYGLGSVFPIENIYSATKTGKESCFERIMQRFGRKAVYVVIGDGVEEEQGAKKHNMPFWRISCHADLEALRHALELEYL
Target sequence (Q15475 whole entry, looked up): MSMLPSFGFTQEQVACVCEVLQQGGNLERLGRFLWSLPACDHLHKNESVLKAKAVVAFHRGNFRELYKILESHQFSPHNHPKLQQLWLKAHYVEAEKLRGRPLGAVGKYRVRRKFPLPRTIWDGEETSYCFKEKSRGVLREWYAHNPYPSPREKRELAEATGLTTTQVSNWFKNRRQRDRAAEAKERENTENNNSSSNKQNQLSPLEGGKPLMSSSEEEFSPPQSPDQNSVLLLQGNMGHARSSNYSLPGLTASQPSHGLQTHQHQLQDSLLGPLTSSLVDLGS
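Compounds are tested against tagged Six1 and Eya2 proteins bridged by glutathione donor and nickel acceptor beads; after a one-hour incubation at 37 °C without light, AlphaScreen emission is recorded.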
CtBP-E1A blk = qHTS Assay for Inhibitors of the CtBP/E1A Interaction; CtBP / adenovirus E1A interaction (AlphaScreen); AlphaScreen GST-E1A/His-CtBP binding, 1536-well; hits give low values; control for the full effect not named in the record; activity change, % (no concentration beside the values); 0.49% of 340,000 active; AID 651724, 2012; in the data active means activity change below about -65%; inconclusive means about -30% to -65%; inactive means above about -30%; further: on the % scale 0 is the no-effect control and ±100 the full control effect; compound concentration not given in the record
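GST-E1A and His-tagged CtBP (125 nM each as 5X stock) were preincubated with pin-transferred compound for 2 h at 37 °C in the dark, then glutathione donor and nickel acceptor beads were added for 1 h before AlphaScreen reading.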
TRPML1 agonist = qHTS for Agonists of the Human Mucolipin Transient Receptor Potential 1 (TRPML1); TRPML1-expressing cells, Ca2+ dye fluorescence, FDSS; host cell line not named in the record; reference of the full effect not given here; activation, % (no concentration beside the values); 0.12% of 410,000 active; in the data active = activation above about 50%; inconclusive = about 30% to 50%; inactive = below about 30%; further: 0% is about no effect; the text of the record puts the active cut at 80%
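In this qHTS format, compounds were pin-transferred onto Ca8-dye-loaded TRPML1-DL cells induced with Tet overnight, and intracellular Ca2+ fluorescence was recorded kinetically for 110 s after a 10 s baseline. A subsequent 4uM final 54-4 (EC80) addition followed by a second 110 s read served as the antagonist phase.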
TRPV1 potentiator = HTS Assay for Compounds that Act as Potentiators of the Vanilloid Receptor 1; TRPV1-expressing cells, Fluo-8 calcium influx, capsaicin EC20 potentiation; host cell line not named in the record; control for the full effect not named in the record; potentiation, % at 8.33 µM; 0.02% of 320,000 active; active means potentiation above 80%; inconclusive means 30% to 80%; inactive means below 30%; further: 0% is about no effect
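Fluo-8 calcium influx in TRPV1-expressing cells, kinetic read (ex 480/em 520 nm). Compound added and read 3 min for agonist activity, followed by capsaicin at EC20 final and 2 min further read for enhancement.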
Active calls of the source: *; u = inconclusive; x = no result given; & = joins results of further samples.

1. O=C(CN1C(=O)c2ccccc2C1=O)Oc1ccc(Cl)cc1
2. O=C(Nc1ccccc1C(=O)O)/C(=C/c1ccc(Cl)cc1Cl)NC(=O)c1ccco1
3. CNC(=O)NC(=S)NC(=O)c1cccc(Cl)c1
4. O=C(CCl)N(C1CCCC1)C1CCS(=O)(=O)C1 (stereo not given)
5. CCN(CC)C(=O)c1ccc(N)cc1
6. CCOc1ccccc1C(=O)Nc1cc(=O)n(C)c(=O)n1C
7. CCc1ccc2c(CN3CCN(S(=O)(=O)c4cccs4)CC3)cc(=O)oc2c1
8. CCCCCCn1cc(C(=O)O)c(=O)c2ccccc21

screen / no. | 1 | 2 | 3 | 4 | 5 | 6 | 7 | 8
CtBP-E1A blk | -2 | -8 | 1 | -10 | -11 | -7 | -8 | 1
D2 potentiator | -15 | 1 | -16 | -8 | -9 | -11 | 2 | -11
TRPML1 agonist | 0.8 | 0.3 | 0.0 | -0.2 | 1.2 | 0.1 | 2.4 | -0.3
TRPV1 potentiator | -15 | 23 | 5 | 17 | 8 | -5 | -3 | -12
Six1-Eya2 blk | 2 | -2 | -2 | -2 | 11 | -19 | 2 | 0
TRPML1 inh | 10 | -13 | 2 | 10 | 13 | 15 | 2 | 13

9. CCOc1cc(CNn2cnnc2)cc(Br)c1OCC(=O)NC(C)(C)C
10. COc1ccc([N+](=O)[O-])cc1NC(=O)c1ccc(CN(c2ccc(C)c(C)c2)S(C)(=O)=O)cc1
11. Cc1ccc(C(=O)NC2(C(F)(F)F)NC(=O)N(c3ccc(Cl)cc3)C2=O)cc1 (stereo not given)
12. CCC(C)c1nc2ccsc2c(N2CCOC2=O)c1-c1ccccc1 (stereo not given)
13. C=C(C)COC(=O)C1CC2OC2CC1C(=O)OCC(=C)C (stereo not given)
14. C/C(=N\OC(=O)c1cccc(C)c1)c1sc(-c2ccccc2)nc1C
15. COc1cc(OC)c(CN2CCC(Cc3ccccc3)CC2)cc1Br
16. CCOc1ccc(NC(=S)Nc2cccc3cnccc23)cc1

screen / no. | 9 | 10 | 11 | 12 | 13 | 14 | 15 | 16
CtBP-E1A blk | 11 | -1 | -14 | -9 | 3 | -9 | x | -12
D2 potentiator | -8 | -1 | -3 | -21 | -6 | -25 | -66 | 6
TRPML1 agonist | -0.2 | 2.4 | -0.5 | 1.3 | -0.5 | 2.2 | 1.4 | -0.7
TRPV1 potentiator | -8 | 1 | 3 | x | x | x | -21 | 2
Six1-Eya2 blk | -4 | 0 | 6 | -5 | 3 | 9 | -21 | -7
TRPML1 inh | 3 | 8 | -6 | 5 | 18 | 17 | -6 | 7

Some of these compounds in order of their number in TRPML1 inh, falling.
| entry | SMILES | CtBP-E1A blk | D2 potentiator | Six1-Eya2 blk | TRPML1 inh |
| --- | --- | --- | --- | --- | --- |
| 14 | C/C(=N\OC(=O)c1cccc(C)c1)c1sc(-c2ccccc2)nc1C | -9 | -25 | 9 | 17 |
| 16 | CCOc1ccc(NC(=S)Nc2cccc3cnccc23)cc1 | -12 | 6 | -7 | 7 |
| 11 | Cc1ccc(C(=O)NC2(C(F)(F)F)NC(=O)N(c3ccc(Cl)cc3)C2=O)cc1 (stereo not given) | -14 | -3 | 6 | -6 |

The list continues.
17. CCCCc1cc(=O)oc2cc(OCC(=O)N[C@@H](Cc3ccccc3)C(=O)O)ccc12
18. CCOC(=O)C1=C(C)N=c2s/c(=C/c3ccc(OCC(=O)O)cc3)c(=O)n2C1c1ccc(F)cc1 (stereo not given)
19. COc1cccc(OCC(=O)NC2CCCCCC2)c1
20. COc1ccc(OC)c(/C(C)=N/Nc2ccc(C(=O)O)cc2)c1
21. COCCNC(=O)/C(C#N)=C/c1c(N2CCN(C)CC2)nc2ccccn2c1=O
22. Cc1nc(NCCCN2CCOCC2)c2oc3ccccc3c2n1
23. O=C(Nc1ccncc1)Nc1ccc(F)cc1F
24. NNc1nnc(-c2ccccc2)c(-c2ccccc2)n1

screen / no. | 17 | 18 | 19 | 20 | 21 | 22 | 23 | 24
CtBP-E1A blk | -22 | -10 | x | 2 | x | -7 | 3 | -4
D2 potentiator | -24 | 1 | -4 | -2 | -3 | -23 | 3 | 4
TRPML1 agonist | x | 3.9 | -0.6 | -0.4 | 0.1 | 2.2 | 0.0 | 0.1
TRPV1 potentiator | 1 | 2 | -22 | 5 | -15 | -4 | 19 | 8
Six1-Eya2 blk | 3 | -15 | -2 | -2 | -1 | 0 | 8 | -19
TRPML1 inh | x | -8 | -4 | 0 | 5 | 15 | -7 | -2

25. CN1CC(=O)N2[C@H]3c4ccccc4OC[C@@H]3[C@H](c3ccccc3)[C@]2(C)C1=O
26. Cc1ccc(-n2cc(C(C)(C)C)[nH]c2=S)cc1
27. CCn1c(CNC(=O)c2ccco2)nnc1SCC(=O)Nc1cc(C(F)(F)F)ccc1Cl
28. Cc1ccc(OCC2Cn3c(nc4c3c(=O)n(C)c(=O)n4C)O2)cc1 (stereo not given)
29. C=Cc1ccc2c(c1)OCCOCCOCCOCCOCCO2
30. CCCCCCN1C[C@@H](n2cc(-c3ccc(F)cc3)nn2)[C@H](O)C[C@@H]1c1ccc(OC)cc1
31. Oc1ccccc1N=Cc1ccc[nH]1
32. O=C(NCc1ccccn1)c1cc(-c2ccccc2)on1

screen / no. | 25 | 26 | 27 | 28 | 29 | 30 | 31 | 32
CtBP-E1A blk | 2 | 3 | 0 | 7 | -1 | 5 | -11 | -12
D2 potentiator | -7 | -19 | -13 | -20 | -3 | 1 | 23 | -19
TRPML1 agonist | -0.6 | 0.9 | 0.9 | 0.0 | -0.1 | 1.0 | -0.5 | 0.6
TRPV1 potentiator | x | 0 | -21 | 6 | -6 | x | u | 14
Six1-Eya2 blk | 1 | -5 | 0 | 10 | 3 | -8 | -10 | -5
TRPML1 inh | 7 | 5 | 1 | -3 | -15 | -18 | -8 | 7

33. CC1(C(=O)NS(=O)(=O)c2ccc(Cl)cc2)CCN1C(=O)CCC1CCCC1 (stereo not given)
34. COc1ccccc1NC(=O)CNc1ccc(F)c(Cl)c1
35. O=C(N/N=C/c1c(O)ccc2ccccc12)c1ccc(Br)o1
36. COCC(=O)NC1CCN(C(=O)NCc2ccccc2)CC1
37. CCCN(CCC)C(=O)Cn1ccc(=N)c2ccccc21
38. C=CCn1cc(Cl)cc(C(=O)Nc2ccccc2)c1=O
39. CCOC(=O)C1CCN(C(=O)COC(=O)/C=C/c2ccccc2)CC1
40. Cc1n(CC(=O)c2ccc(F)cc2)c2ccccc2[n+]1C

screen / no. | 33 | 34 | 35 | 36 | 37 | 38 | 39 | 40
CtBP-E1A blk | 6 | 4 | u | 12 | -2 | 4 | -29 | x
D2 potentiator | 0 | -9 | -12 | -7 | -14 | -6 | -1 | -7
TRPML1 agonist | -0.8 | 0.5 | 12 | -0.7 | 0.7 | 1.3 | 0.6 | 0.1
TRPV1 potentiator | x | -5 | -1 | -2 | 7 | 11 | x | 10
Six1-Eya2 blk | 10 | 4 | u | 7 | -4 | 14 | -3 | 6
TRPML1 inh | x | -10 | -13 | -6 | 5 | -11 | 33 | 3

41. Cc1ccc(S(=O)(=O)NC(=O)C2(C)CCN2C(=O)CC2CCCC2)nc1 (stereo not given)
42. CCOc1ccc(NC(=O)COC(=O)CC2CC3CCC2C3)cc1 (stereo not given)
43. CCN(CC)CCN1C(=O)C(=O)/C(=C(/O)c2ccc(Cl)cc2)C1c1ccncc1 (stereo not given)
44. CCOC(=O)[C@]12CCCC=C1N(Cc1ccc3c(c1)OCO3)C(=O)[C@H](CC(=O)N1CCN(C(=O)c3ccco3)CC1)C2
45. COc1ccc(C(=O)OCCCN(C)C)cc1OC
46. Cc1ccc(C(=O)COC(=O)COc2ccccc2O)cc1C
47. Cc1nnc(NC(=O)Oc2ccccc2)s1
48. C/C(=N\NC(=O)c1ccccc1[N+](=O)[O-])c1ccc(Br)s1

screen / no. | 41 | 42 | 43 | 44 | 45 | 46 | 47 | 48
CtBP-E1A blk | 13 | -14 | -1 | -13 | -3 | x | 4 | 2
D2 potentiator | 4 | -3 | -6 | x | -12 | -4 | -1 | -5
TRPML1 agonist | -0.1 | 1.5 | 0.5 | -0.3 | 0.3 | -0.1 | -0.3 | -0.3
TRPV1 potentiator | x | x | 6 | x | 5 | x | 13 | -1
Six1-Eya2 blk | -3 | -11 | -2 | 3 | 7 | 5 | 1 | -1
TRPML1 inh | x | 1 | 13 | x | 10 | 2 | 9 | -11

49. COc1cc2nc(CN3CCN(S(=O)(=O)c4ccc(C)c(C)c4)CC3)[nH]c(=O)c2cc1OC
50. O=C1CC(c2ccc(S(=O)(=O)N3CCN(c4ccccc4)CC3)cc2)CN1 (stereo not given)
51. C=C(C)Cn1c(CCNC(=O)C(C)C)nc2ccccc21
52. O=C(NCCc1ccccc1F)C1CC(=O)N(c2cccc(C(F)(F)F)c2)C1 (stereo not given)
53. COc1ccccc1Nc1ccc(S(=O)(=O)N2CCCCC2)cc1[N+](=O)[O-]
54. O=C(COc1ccc(Cl)cc1)N1CCN(Cc2ccc3c(c2)OCO3)CC1
55. Cc1ccc(C(C(=O)NC2CCCCC2)N(CCC(C)C)C(=O)CNC(=O)c2ccco2)o1 (stereo not given)
56. Cc1cc(/C=N/Nc2ccc([N+](=O)[O-])cn2)c(C)n1-c1ccc(C(=O)O)cc1

screen / no. | 49 | 50 | 51 | 52 | 53 | 54 | 55 | 56
CtBP-E1A blk | x | 7 | 5 | -12 | -25 | 5&-16 | 0 | -13
D2 potentiator | -3 | -6 | -19 | -1 | -25 | 19&-11 | -11 | 7
TRPML1 agonist | 1.8 | 0.1 | -0.7 | -0.7 | 3.1 | 0.9&-0.5&0.9 | -0.4 | 0.9
TRPV1 potentiator | 12 | -15 | 0 | x | 1 | -5&2&-12 | -17 | 2
Six1-Eya2 blk | -13 | 2 | -11 | 7 | u | -1&-18 | -6 | u
TRPML1 inh | 7 | -8 | 31 | -16 | 27 | 8&13&-6 | -4 | -4

57. N#CC(C#N)=C1CCCc2sccc21
58. CCCn1c(/N=C/c2cc(OC)ccc2O)nc2ccccc21
59. Cc1ccc(-n2c(-c3cc(-c4ccco4)[nH]n3)n[nH]c2=S)c(Br)c1
60. Cc1cc(C)cc(N(CC(=O)N2CCN(c3ccccc3)CC2)S(=O)(=O)c2c(C)noc2C)c1

screen / no. | 57 | 58 | 59 | 60
CtBP-E1A blk | 11 | 3 | 1 | -2
D2 potentiator | -10 | -5 | -4 | -6
TRPML1 agonist | 0.8 | -1.2 | -0.7 | 0.9
TRPV1 potentiator | x | 2 | -5 | x
Six1-Eya2 blk | 6 | 2 | 9 | -9
TRPML1 inh | -19 | -4 | 4 | 13

Single values from the results shown.
TRPML1 inh with Cc1cc(C)cc(N(CC(=O)N2CCN(c3ccccc3)CC2)S(=O)(=O)c2c(C)noc2C)c1 reads 13
CtBP-E1A blk with N#CC(C#N)=C1CCCc2sccc21 reads 11
D2 potentiator with CCCn1c(/N=C/c2cc(OC)ccc2O)nc2ccccc21 reads -5

Screens deposited in PubChem by National Center for Advancing Translational Sciences (NCATS).
